# Assay outcomes from PubChem BioAssay.
# NS1 inh: influenza NS1 inhibition | hit rate 0.4% among 270,000 | AID 2326 | Potency, µM (titrated, usually from 46.1 µM), for inactives: at the top dose activity, positive = more growth | S. cerevisiae slowed by influenza A NS1, growth recovery by OD600; active means well fitted rising curve with a large enough effect; inconclusive means small, poorly fitted or top-dose-only effect; inactive means no such curve, though single readings can be large or run the other way; further: nearly all actives have a fitted effect of over 50% in size
#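 A cell-based growth assay was used: compounds that relieve NS1-induced slow growth of budding yeast raise OD600. Assay medium was yeast nitrogen base with ammonium sulphate and -URA supplement, pH 6.0, with 2% galactose.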
# 2A StopGo: FMDV 2A StopGo reporter, luciferase signal | AID 1159524 | human cells with a luciferase reporter of 2A StopGo recoding; control for the full effect not named in the record | Potency, µM (doses to about 57.9 µM), inactives show top-dose signal change, negative = less light | hit rate 1.2% among 410,000; active = well fitted falling curve with a large enough effect; inconclusive = small, poorly fitted or top-dose-only effect; inactive = no such curve, though single readings can be large or run the other way; tested in HEK293T cells; further: on the % scale 0 is the no-effect control and ±100 the full control effect; nearly all actives have a fitted effect of over 45% in size; luciferase light after 4 h
# RE007 growth inh: less growth of the S. pombe RE007 Vpr strain. S. pombe RE007 Vpr strain, BacTiter-Glo ATP luminescence, 24 h; control for the full effect not named in the record. Potency, µM (top dose mostly 92.2 µM), for inactives: top-dose activity change, negative = less growth. hit rate 0.21% among 360,000; active = well fitted falling curve with a large enough effect; inconclusive = small, poorly fitted or top-dose-only effect; inactive = no such curve, though single readings can be large or run the other way;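 further: on the % scale 0 is the no-effect control and ±100 the full control effect; nearly all actives have a fitted effect of over 50% in size; the assay follows cell death caused by Vpr and the record does not say whether a fall means rescue or toxicity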
#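 Fission yeast strain RE007, carrying one chromosomally integrated HIV-1 vpr copy, was seeded at OD 0.01 in PMG+AL medium with 23 nL pinned compound. After 24 h at 30 °C and 99% humidity, viability was read by BacTiter-Glo luminescence.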
# MARV entry inh: Marburg virus entry inhibition | Marburg virus pseudotyped entry inhibition, cell reporter; control for the full effect not named in the record; about a third of the inactives were read at about 46 µM | Potency, µM (titrated, usually from 37.8 µM), without a hit: top-dose activity change, negative = inhibition, actives largely listed as inhibitors | hit rate 1.8% among 300,000 | AID 540276; active = well fitted inhibition curve with a large enough effect; inconclusive = small, poorly fitted or top-dose-only effect, or effect the other way; inactive = flat fitted curve, though single readings scatter; tested in HEK293 cells; about a fifth of its hits are not listed in these tables; further: on the % scale 0 is the no-effect control and ±100 the full control effect; luciferase read-out
# Cruzain inh noDet: cruzain (T. cruzi) inhibition without detergent. P25779. purified cruzain, Z-FR-AMC fluorescence, no detergent. Potency, µM, without a hit: max response, negative = inhibition, actives largely listed as inhibitors. hit rate 2.3% among 200,000. AID 1476;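 further: plate controls were enzyme without inhibitor for no effect and buffer without enzyme for full effect; nearly all actives have a fitted effect of over 40% in size; top concentration of the series not given in the record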
# Target sequence (P25779 123-467 limits assumed): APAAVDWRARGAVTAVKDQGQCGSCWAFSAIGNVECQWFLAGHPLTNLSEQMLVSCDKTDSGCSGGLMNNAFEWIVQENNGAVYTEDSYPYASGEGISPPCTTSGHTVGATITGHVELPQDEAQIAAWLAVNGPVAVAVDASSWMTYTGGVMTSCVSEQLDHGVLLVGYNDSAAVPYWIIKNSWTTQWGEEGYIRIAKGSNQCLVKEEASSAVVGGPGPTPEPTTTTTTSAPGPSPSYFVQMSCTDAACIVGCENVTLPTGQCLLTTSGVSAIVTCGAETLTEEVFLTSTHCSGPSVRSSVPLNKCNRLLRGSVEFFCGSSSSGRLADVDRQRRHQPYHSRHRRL
#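 Detergent-free condition (0.00005% Triton X-100) in acetate buffer pH 5.5 with DTT. 1.5 nM enzyme and compound were pre-mixed 15 min, then 2 uM Z-FR-AMC substrate added; reaction progress from fluorescence change between first and third reads (60 s).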
# Cruzain inh Det: cruzain (T. cruzi) inhibition with detergent. P25779. purified cruzain, Z-FR-AMC fluorescence, 0.01% Triton. Potency, µM, for the others: max response, negative = inhibition, most hits filed as inhibitors. hit rate 0.43% among 200,000;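 further: plate controls were neutral wells for no effect and buffer without enzyme for full effect; nearly all actives have a fitted effect of over 40% in size; top concentration of the series not given in the record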
#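 Detergent-containing run (0.01% Triton X-100) in acetate buffer pH 5.5 with 5 mM DTT: enzyme at 1.5 nM final, 15 min compound preincubation at room temperature, then 2 uM Z-FR-AMC substrate. Activity taken as 60 s fluorescence increase at 360/450 nm.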
# SARS PLP yeast: inhibitors of SARS-CoV papain-like protease in yeast. S. cerevisiae expressing SARS-CoV PLpro, growth rescue; control for the full effect not named in the record. Potency, µM (doses to about 32.9 µM), without a hit: top-dose activity, positive = growth rescue. hit rate 0.19% among 330,000. AID 485353; active means well fitted rising curve with a large enough effect; inconclusive means small, poorly fitted or top-dose-only effect; inactive means no such curve, though single readings can be large or run the other way; further: 0% is about no effect; nearly all actives have a fitted effect of over 55% in size; growth read by luminescence after 48 h
# LASV entry inh: Lassa virus entry inhibition; Lassa virus pseudotype entry inhibition, cell reporter; control for the full effect not named in the record; Potency, µM (top dose mostly 37.9 µM), inactives show at the highest dose activity change, negative = inhibition, usual class: inhibitors; hit rate 1.2% among 300,000; AID 540256; active means well fitted inhibition curve with a large enough effect; inconclusive means small, poorly fitted or top-dose-only effect, or effect the other way; inactive means flat fitted curve, though single readings scatter; tested in HEK293 cells; further: on the % scale 0 is the no-effect control and ±100 the full control effect; nearly all actives have a fitted effect of over 50% in size; luciferase read-out
# * marks the source's active call; other numbers are inactive results; ? = inconclusive; · = no result given; & = joins results of further samples; [ ] = another dose, or the depositor's remark. Unless noted, the call rests on the fitted dose curve; in most records, active means well fitted curve in the direction sought with a large enough effect; inconclusive means small, poorly fitted or top-dose-only effect, or another doubt; inactive means no such curve, though single readings can be large; an effect the other way counts as inactive or inconclusive. Potency means the concentration at half of the fitted maximal effect.
SMILES,NS1 inh,2A StopGo,RE007 growth inh,MARV entry inh,Cruzain inh noDet,Cruzain inh Det,SARS PLP yeast,LASV entry inh
Cc1cccc(NC(=O)CCN2C(=O)C3C4C=CC(C4)C3C2=O)c1 (stereo not drawn),4%,12%,2%,14%,-4%,4.0%,-1%,-17%
Cc1ccc(CNC(=O)Cn2c(=O)n(Cc3ccccc3)c(=O)c3c2c2cc(C)ccc2n3C)cc1,·,-9%,·,·,4%,-0.2%,·,8%[46.1 µM]
COc1cccc(CNC(=O)c2cc(S(=O)(=O)N3CCCCC3)cn2C)c1,·,-12%,·,·,0%,-4.7%,·,4%[46.1 µM]
COc1cccc(C2CC(c3cccs3)=NN2S(C)(=O)=O)c1 (stereo not drawn),·,83%[activator],-7%,-1%[46.1 µM],·,·,1%,5%
O=C(NC(=S)NCCO)c1sc2ccccc2c1Cl,-1%,60%[activator],-8%,·,·,·,0%,·
COCCNC(=O)C(c1ccc(C)cc1)N(C(=O)CCC(=O)Nc1ccccn1)C1CCCC1 (stereo not drawn),-6%,·,·,-3%,?,-2.6%,3%,·
COc1ccccc1OC(C)C(=O)N1CCN(Cc2ccc3c(c2)OCO3)CC1 (stereo not drawn),-7%,-22%,1%,1%[46.1 µM],·,·,-3%,·
CN(C)c1ccnc2sc3c(SCc4ccc(Cl)cc4)ncnc3c12,3%,11%,15%,16%,-13%,-5.1%,-10%,0%
CCC(Sc1ncccc1C(=O)OC(C)C)C(=O)N1CCOCC1 (stereo not drawn),-12%,7%,-5%,4%,-9%,5.4%,-3%,-2%
CC(C)N(Cc1ccco1)/N=C/c1c(O)n(Cc2ccccc2)c(=O)[nH]c1=O,7%,?,8%,-16%[46.1 µM],·,·,0%,?
CCOc1ccc(NC(=O)c2c(NC(=O)Cc3ccccc3)sc3c2CCCCC3)cc1,·,-2%,·,·,-5%,-3.0%,·,2%[46.1 µM]
COc1ccc(NC(=O)c2cncn2-c2ccccc2)cc1,9%,11%,-7%,-22%[46.1 µM],·,·,-9%,14%
CCCNC(=O)NCCc1ccncc1,-4%,-5%,6%,-17%,-4%,3.8%,-2%,-3%
CCN(CC)C(=O)N1CCn2c(nc3ccccc32)C1,0%,9%,9%,13%,-1%,-1.2%,4%,-27%
Cc1cc(-c2nnc(-c3cccc(Cl)c3)o2)no1,0%,53%[activator],3%,?,·,·,0%,1%
C=CCNC(=O)CSc1nnc(-c2ccccn2)n1Cc1ccccc1,-1%,-5%,4%,-6%,·,·,-1%,2%
O=C1c2oc3ccccc3c(=O)c2C(c2cccc(F)c2)N1CCCO (stereo not drawn),-4%,-23%,6%,2%,-9%,2.2%,3%,1%
CCc1cccc2c(C(=O)CSc3nnc(-c4ccoc4C)n3C)c[nH]c12,3%,0%,-7%,-9%,-8%,-0.7%,-2%,0%
CCN(CC)S(=O)(=O)c1cccc(C(=O)N/N=C/c2ccc([N+](=O)[O-])o2)c1,·,?,-6%,?,·,·,6%,?
CCN(CC(=O)Nc1cccc(OC)c1)CC(=O)Nc1cccc2ccccc12,·,-23%,-6%,?,·,·,-2%,-12%
C[C@H]1CC2C3CC=C4C[C@@H](O)CC[C@]4(C)C3CC[C@]2(C)[C@H]1O (stereo partly drawn),·,0%,3%,12%[46.1 µM],·,·,0%,7%[46.1 µM]
CCc1nnc(NC(=O)C2CCC(CNc3c(N4CCC(C)CC4)c(=O)c3=O)CC2)s1 (stereo not drawn),6%,6%,-10%,-7%[46.1 µM],·,·,1%,-2%
CCOc1ccccc1N(CC(=O)Nc1ccc(OC)cc1)S(=O)(=O)c1ccccc1,24%,37%[activator],26%,·,·,·,-4%,·
COc1ccc(C(C)=O)cc1CSc1nnc(Nc2c(C)cccc2C)s1,-6%,12%,3%,?,?,-7.5%,21%,-24%
Cc1ccc(CNC(=O)CSc2cc(C)[nH]c(=O)n2)cc1,·,-1%,·,·,-20%,-2.1%,·,-1%[46.1 µM]
CC(C)C(C)(C#N)NC(=O)CSc1nc2scc(-c3ccco3)c2c(=O)n1-c1ccccc1 (stereo not drawn),-3%,-7%,6%,-12%,0%,-6.5%,-2%,-20%
COCC(C)n1c(C)cc(C(=O)COC(=O)CNC(=O)c2ccccc2)c1C (stereo not drawn),7%,-8%,-6%,54%,-30%,-23%,-5%,4%
CCCCOc1ccccc1NC(=O)c1ccco1,-68%,-6%,-1%,?,-2%,-2.2%,-12%,?
O=C(Oc1ccc2c(c1)OCO2)c1ccc(F)cc1Cl,-42%,40%,-26%,?,7%,-7.6%,-1%,?
CCn1cnc2scc(-c3ccc(C)c(C)c3)c2c1=O,-38%,-15%,-18%,·,·,·,-3%,·
COc1ccc(C(=O)C2CCN(CC(=O)Nc3ccccc3F)CC2)cc1,1%,-28%,-30%,-14%[46.1 µM],·,·,0%,23%[46.1 µM]
Cc1ccc(NC(=O)C2CCN(C(=O)N3CCOc4ccccc43)CC2)cc1,-6%,?,7%,·,·,·,5%,·
CCOC(=O)C1CCN(S(=O)(=O)c2c(C(=O)N3CCCCC3)c(C)n(C)c2C)CC1,-7%,8%,-3%,-1%[46.1 µM],·,·,-3%,0%[46.1 µM]
COc1ccc(CCNC(=O)c2nonc2N)cc1OC,0%,24%,14%,7%,-6%,1.9%,-5%,?
CN(C)S(=O)(=O)Oc1ccsc1C(=O)Nc1ccc(Cl)c(Cl)c1,-13%,?,-24%,-5%,-11%,-4.1%,-4%,-11%
Cc1cccc(-c2cccc(NC(=O)C3CCCN(Cc4cccnc4)C3)c2)c1 (stereo not drawn),-31%,-11%,-17%,?,·,·,-4%,-4%
CCN(CC(=O)Nc1ccc(NC(C)=O)cc1)C(=O)c1c(C)nn(-c2ccc(F)cc2)c1Cl,·,-22%,-6%,-22%,·,·,2%,-11%
N#Cc1cccc(NC(=O)CSc2nnc(-c3n[nH]c4ccccc34)o2)c1,7%,-10%,21%,?,·,·,1%,-12%[46.1 µM]
CN1C[C@@H]2C(c3ccc(C(F)(F)F)cc3)C3(c4ccc(C#N)cc4)CC2(C3)[C@H]1c1ccccc1 (stereo partly drawn),-16%,-28%,0%,·,-12%,0.0%,-3%,·
O=C(Nc1ccccn1)C1CCN(S(=O)(=O)c2ccc3ccccc3c2)CC1,·,-18%,2%,-4%[46.1 µM],·,·,-1%,6%
CC(=O)Nc1ccc(S(=O)(=O)NCCSc2ccccn2)cc1,1%,-3%,30%,-1%[46.1 µM],-3%,1.5%,-1%,-7%
O=C(c1cc(COc2ccc(F)cc2F)on1)N1CC2C[C@@H]3CC1C[C@H](C2)C3,-28%,11%,2%,?,·,·,-1%,16%[46.1 µM]
COC(=O)c1ccc(/C=C/C(=O)c2ccc(OC)c(OC)c2)cc1,-18%,-21%,?,-2%,?,-3.3%,-17%,-22%
Cc1cccc2nc(CSc3nc4[nH]ncc4c(=O)n3-c3cccc(Cl)c3)cc(=O)n12,32%,16µM*,13%,7.3µM*,?,-11%,-3%,-28%&1%
Cc1ccccc1CC1(CO)CCCN(Cc2c(C)nn(C)c2Cl)C1 (stereo not drawn),5%,-18%,-12%,?,·,·,0%,1%[46.1 µM]
Cc1cc(C)n(-c2cc(N3CCN(S(=O)(=O)c4ccc(Br)cc4)CC3)ccc2[N+](=O)[O-])n1,?,0%,1%,-33%,?,-5.7%,2%,-10%
CC(C)NS(=O)(=O)c1ccc(OCC(=O)NCc2ccccc2)cc1,-2%,-2%,18%,-20%,14%,1.9%,-11%,11%
Cc1ccc(NC(=O)NCCc2c(C)nn(C)c2C)c(Cl)c1,·,15%,·,·,-3%,0.2%,·,5%[46.1 µM]
CCc1c(C)c(C#N)c2nc3ccccc3n2c1-n1nc(C)cc1C,5%,-28%,7%,-9%&-9%,-2%,-5.2%,-15%,15%
CCCn1cnc2sc(C(N)=O)c(C)c2c1=O,-3%,-15%,3%,-20%,0%,5.1%,13%,19%
CC(=O)C1=C(O)C(=O)N(C)C1c1ccccc1F (stereo not drawn),0%,9%,23%,16%,-12%,1.1%,6%,15%
COc1ccc(C2C(C(=O)N3CCCC3)c3cc(OC)c(OC)cc3C(=O)N2C)cc1 (stereo not drawn),-2%,11%,10%,?,-4%,9.5%,-1%,-1%
Fc1ccc(-c2cn(-c3ccccc3)c3[n+]2CCS3)cc1,2%,-20%,-15%,2%[46.1 µM],·,·,0%,-27%[46.1 µM]
O=C(NC1CCCC1)c1ccc2c(c1)N(Cc1ccc(C(F)(F)F)cc1)C(=O)c1ccccc1S2,·,?,·,-24%[46.1 µM],?,-7.5%,·,-14%[46.1 µM]
OC1CCCN(CC(O)c2ccccc2)C1 (stereo not drawn),·,-1%,7%,?,·,·,0%,5%
COc1ccc(CCN2C(=O)CC(NNc3ccc([N+](=O)[O-])cc3)C2=O)cc1OC (stereo not drawn),-1%,?,-30%,-1%[46.1 µM],·,·,-1%,-3%
CC(=O)Nc1ccc(S(=O)(=O)N2CCC3(CC2)OCCO3)cc1,-8%,-11%,-2%,·,·,·,0%,·
CCN(CC(=O)Nc1ccc(NC(C)=O)cc1)C(=O)c1c(-c2c(F)cccc2Cl)noc1C,3%,-9%,-1%,23%,·,·,0%,1%
O=C(NCC(=O)N(c1cnc2ccccc2c1)C(C(=O)NC1CCCC1)c1ccncc1)c1ccco1 (stereo not drawn),-10%,-14%,-8%,2%,-17%,-1.7%,-1%,-4%
CCOC(=O)c1sc2nc(C)nc(NC3CCC(O)CC3)c2c1C (stereo not drawn),17%,-4%,2%,?,·,·,-2%,0%[46.1 µM]
